PABP FP inh = PABP poly(A) RNA binding inhibitors, primary screen, biochemical, fluorescence polarization, uHTS | 1% of 290,000 active | AID 2014, 2009 | inhibition, % at 35 µM | Polyadenylate-binding protein 1 (Homo sapiens), P11940;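 active = 50% or more with normal probe brightness, or confirmed in later tests; inconclusive = above 50% with abnormal brightness, or retests that disagree; inactive = below 50% or failed in later tests; about a fifth of its hits are not listed in these tables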;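 note: calls also rest on retests at 20 µM and on dose response follow-up; controls were probe without protein and protein plus probe with vehicle; some compounds called inactive have numbers as strong as hits; many hits fall short of the cut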
Target sequence (P11940 whole entry, looked up): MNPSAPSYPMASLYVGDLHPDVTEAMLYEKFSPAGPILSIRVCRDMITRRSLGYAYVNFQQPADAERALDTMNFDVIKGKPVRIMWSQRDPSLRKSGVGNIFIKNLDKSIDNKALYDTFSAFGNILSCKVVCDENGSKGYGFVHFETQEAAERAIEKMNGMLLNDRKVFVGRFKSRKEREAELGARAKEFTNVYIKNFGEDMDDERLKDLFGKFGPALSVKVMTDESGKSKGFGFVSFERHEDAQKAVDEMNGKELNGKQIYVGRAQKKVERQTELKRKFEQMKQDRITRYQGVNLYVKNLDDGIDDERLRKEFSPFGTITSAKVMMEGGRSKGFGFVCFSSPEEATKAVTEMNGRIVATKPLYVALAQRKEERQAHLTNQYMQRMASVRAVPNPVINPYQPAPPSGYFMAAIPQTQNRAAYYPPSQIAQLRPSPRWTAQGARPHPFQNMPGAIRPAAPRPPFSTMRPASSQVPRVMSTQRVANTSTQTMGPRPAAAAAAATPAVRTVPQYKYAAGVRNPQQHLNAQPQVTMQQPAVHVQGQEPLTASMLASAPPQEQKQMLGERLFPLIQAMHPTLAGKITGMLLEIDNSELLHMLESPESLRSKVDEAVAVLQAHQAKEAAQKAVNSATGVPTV
MT1-MMP act inh = blockers of MT1-MMP proenzyme processing, primary screen, HT1080 RFP-PRO-GFP cells, GFP/RFP fluorescence; 0.061% of 360,000 active; Matrix metalloproteinase-14 (Homo sapiens), P50281; GFP/RFP ratio change, % at 20 µM; GFP/RFP ratio fluorescence, overnight; percent of plate control window, DMSO zero; AID 651647, 2012;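 active = GFP/RFP ratio change of at least 30% with cell ATP level not reduced by more than half and red fluorescence within 50% of control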; note: strong numbers were not always called active
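Compound: 20 µM single dose, 1% DMSO / System: HT1080 RFP-PRO-GFP cells / Controls: DMSO and RFP-L50D-GFP cell wells / Read-out basis: GFP/RFP fluorescence ratio / Schedule: overnight compound exposure at 37 °C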
Env fusion inh = inhibitors of HIV-1 Env-driven cell-cell fusion, primary screen, HeLa-JRFL effector, CEM21 target cells, luciferase. inhibition, % at 12.3 µM. 1.1% of 360,000 active. AID 651610, 2012;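 active = mean replicate inhibition score of at least 50 and every replicate individually at or above 50; inconclusive = only one of the two criteria met; inactive = mean below 50 and not all replicates reaching 50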;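 note: 0% = plate neutral controls and 100% = maraviroc near 300 nM; one replicate is shown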
Yeast UUG start = modulators of yeast start codon fidelity, primary screen, whole organism, S. cerevisiae, single point, plate reader. S. cerevisiae UUG-firefly luciferase reporter, luminescence/redox ratio. activity score, % at 18.7 µM. 0.13% of 350,000 active. AID 602363, 2012;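 active = replicate mean at a twofold rise or more, about +100% in these data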;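 note: firefly luciferase made from a UUG start codon reports start codon fidelity; reporter light over untreated wells divided by growth signal over untreated wells; some hits fall short of that in this replicate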
Rce1 inh = yeast Rce1p protease inhibitors, primary screen, biochemical, fluorescence, cell-free homogeneous; CAAX prenyl protease 2 (Saccharomyces cerevisiae (strain ATCC 204508 / S288c)), Q03530; 0.27% of 290,000 active; calls only; yeast membranes, quenched prenylated peptide cleavage fluorescence;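 active = fall in fluorescence gain of 50% or more versus controls, with final raw signal at or below 3038400; inconclusive = same 50% fall but final raw signal above 3038400; inactive = fall in fluorescence gain under 50%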;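 note: plate controls were neutral control wells for no effect and wells lacking membranes for full effect; tested at 10 µM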
eIF4H FP inh = human eIF4H binding inhibitors, primary screen, translation initiation inhibitor project, biochemical, uHTS, fluorescence polarization; Eukaryotic translation initiation factor 4H (Homo sapiens), Q15056; eIF4H fluorescence polarization binding assay; inhibition, % at 35 µM; 0.94% of 290,000 active;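 active = 50% or more with normal probe brightness, or confirmed in later tests; inconclusive = above 50% with abnormal brightness, or retests that disagree; inactive = below 50% or failed in later tests; about a fifth of its hits are not listed in these tables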;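 note: calls also rest on retests at 20 µM and on dose response follow-up; 0% = protein and probe with vehicle and 100% = probe without protein; strong numbers were not always called active; many hits fall short of the cut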
CSC inhib = cancer stem cell viability inhibitors, primary screen, luminescence. inhibition, % at 7.5 µM. cancer stem cell-like cells viability. 1.1% of 300,000 active;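 active = mean at 75% or more and at least half the replicates too; inconclusive = mean and replicates disagree; tested in HMLE shEcad cells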;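 note: 0% = median of negative and 100% = median of positive control wells; the first replicate is given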
eIF4H FP inh retest = second read-out of eIF4H FP inh, no call of its own (marks repeat the call); inhibition, %; compound at 20 µM; confirmation average;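 mean of two retest wells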
PABP FP inh retest = recorded beside PABP FP inh, whose call it bears; inhibition, %; compound at 20 µM; confirmation repeats;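 mean of two retest wells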
MT1-MMP act inh RFP = further read-out of MT1-MMP act inh, marked with its call; RFP signal change, %; measured here: RFP expression control read;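 0 = vehicle wells; hits needed this value within 50% of zero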
Active calls of the source: *; i = inactive; ? = inconclusive; nt = no result given; [ ] = another dose, or the depositor's remark. Only part of the results is shown. The share of hits here may be higher or lower than overall.

SMILES	PABP FP inh	MT1-MMP act inh	MT1-MMP act inh RFP	Env fusion inh	Yeast UUG start	Rce1 inh	eIF4H FP inh	CSC inhib	others
Cc1c(Cl)cnc(NC(=O)COC(=O)CCc2nc3ccccc3s2)c1Cl	-1.8	0.3	1.2	-52.8	nt	i	-7.7	-8.0
OCc1cccc(-c2csc(C(O)(c3ccccc3)C(F)(F)F)n2)c1 (configuration not stated)	nt	1.3	-2.8	-5.2	-5.1	nt	nt	nt
Cc1ccc(OCC(=O)N2CCN(C(=O)c3cccnc3)CC2)cc1	-1.7	-7.9	-5.0	-3.5	-22.7	i	5.4	1.0
O=C(Nc1ccccc1C(=O)O)c1cc(S(=O)(=O)Nc2ccccc2)ccc1Cl	1.6	-1.0	1.7	10.5	1.1	i	-6.4	-10.7
C/C(=N\NC(=O)c1nnn(-c2nonc2N)c1-c1ccc2c(c1)OCO2)c1ccccc1	-0.2	-0.5	-0.8	1.8	-9.8	i	1.8	2.4
N/C(COc1ccccc1)=N\NC(=O)c1cccnc1Oc1ccccc1	-1.2	0.3	4.0	-44.2	-21.9	i	-3.4	4.1
Cc1cc(C(F)(F)F)nn1Cc1n[nH]c(=S)n1Cc1ccccc1	?	4.5	1.7	-58.6	-15.1	i	9.0	10.5
CCOC(=O)c1cnc2cc(-c3ccc(C)cc3)nn2c1-c1ccccc1	-0.6	3.4	3.6	nt	nt	i	1.9	1.2
COc1ccccc1CNC(=O)[C@H](C)NC(=O)C1CCN(C(=O)[C@@H](N)Cc2ccccc2)CC1	6.1	-10.3	-1.7	nt	3.5	i	-2.5	0.0
Cn1c(=O)c2cc(NC(=O)NCc3ccc(Cl)cc3Cl)ccc2n1Cc1ccc(F)cc1	nt	-1.9	-13.3	-12.4	-25.7	nt	nt	nt
COc1ccc(/C=N\NC(=O)c2ccc(F)cc2)cc1COc1ccccc1C(N)=O	-6.4	-2.7	0.4	-7.6	-9.2	i	3.3	-2.0
CCOC(=O)c1cnn2c(SC)ncnc12	nt	0.1	4.5	9.1	-15.0	nt	nt	nt
COc1cccc(CCNC(=O)c2cc(COc3c(F)cccc3F)on2)c1	1.4	-3.1	1.4	-2.9	-16.6	i	-3.8	-13.6
COc1ccc(C(=O)NCCS(=O)(=O)N2CCc3ccccc3C2)cc1OC	nt	-1.3	0.7	-16.2	-4.7	i	nt	nt
COC(=O)c1ccc(CNC(=O)c2ccc3c(c2)NC(=O)CS3)cc1	nt	-3.5	-5.4	-9.5	-13.6	nt	nt	nt
NS(=O)(=O)c1ccc(CCNC(=O)C2CCCCC2)cc1	2.7	-9.1	5.1	-78.1	-14.6	i	5.1	-2.5
O=C(N/N=C\c1ccc(F)cc1)c1ccc(F)cc1	9.1	-3.5	-3.4	-19.7	-22.8	i	8.0	-6.8
O=C(Nc1ccnn1C1CCN(C(=O)CCc2ccc(F)cc2)CC1)C1CCOC1 (configuration not stated)	-1.2	-3.0	-1.1	1.3	-14.4	i	2.0	-1.5
COc1ccccc1C(=O)NCCc1nc2ccccc2n1C	-11.5	-7.0	-3.0	-2.7	-13.3	i	-12.0	-2.8
OC(COc1cc(Cl)c(Cl)cc1Cl)CN1CCN(c2ncccn2)CC1 (configuration not stated)	8.1	-4.9	-4.2	7.5	6.9	i	-4.5	13.9
N#Cc1ccc(C(=O)NN2C(=O)NC3(CCCCC3)C2=O)cc1	nt	-2.0	1.9	5.0	-8.0	nt	nt	nt
CCOc1ccc(C(=O)n2cnnc2N)cc1	25.7	2.4	5.8	18.7	nt	i	2.6	-2.8
Cc1cc(C)cc(N(C(=O)Cn2nnc3ccccc32)C(C(=O)NCc2ccco2)c2ccncc2)c1 (configuration not stated)	-3.3	2.1	1.8	nt	-20.8	i	-4.0	-6.2
CCOC(=O)CC1C(=O)NCCN1S(=O)(=O)c1ccccc1 (configuration not stated)	1.7	nt	nt	7.6	nt	i	-7.0	-14.9
Cc1ccc(N2C(=O)c3ccccc3C2C(=O)c2ccc(O)cc2O)cc1 (configuration not stated)	-4.2	-6.7	-5.6	-11.0	nt	i	85.9	22.4	eIF4H FP inh retest=-15.4;PABP FP inh retest=10.9
Cc1ccc(C)c(S(=O)(=O)N2CCCOC2CNC(=O)C(=O)NCc2ccncc2)c1 (configuration not stated)	16.8	0.0	-1.4	2.5	nt	i	-1.2	2.6
O=C(CCC(=O)c1cccs1)NCc1ccc(F)cc1	-5.9	4.1	5.0	-110.5	-10.7	i	-14.2	-11.0
O=C(COc1ccccc1[N+](=O)[O-])N1CCCc2ccccc21	6.6	-6.9	-3.1	4.4	-11.0	i	-5.5	0.2
NC(=O)C1(Nc2ccc(-c3ccc(Cl)cc3)cc2)CCCC1	nt	3.9	-3.4	-8.6	-22.8	nt	nt	nt
Cc1noc(C)c1S(=O)(=O)Nc1ccc(C#N)cc1	0.9	1.1	-0.6	30.1	-19.0	i	7.8	-8.5
O=C(O)C1CCC(CNS(=O)(=O)c2ccc(Br)cc2)CC1 (configuration not stated)	-8.2	0.7	5.3	-11.2	-5.5	i	-7.0	2.4
CCn1c(SCC(=O)NNC(=O)c2ccc(C)cc2)nnc1C(C)C	1.0	1.5	7.0	-2.9	nt	i	-9.0	-10.3
CCCCOc1ccc(C(=O)NCC(=O)N2CC(C)OC(C)C2)cc1 (configuration not stated)	nt	-0.8	1.1	17.9	-15.2	nt	nt	nt
CN1C(=O)c2ccccc2OC1(C)Cc1ccccc1 (configuration not stated)	1.8	0.0	2.2	10.9	nt	i	6.7	nt
O=C(NN1CCN(Cc2ccccc2Cl)CC1)c1ccc(Cl)cc1	-4.4	0.1	-2.5	nt	nt	i	0.2	-9.5
COc1cccc(C(=O)OCC(=O)NCCC2=CCCCC2)c1	nt	-1.0	3.7	-14.9	nt	nt	nt	-13.0
CCc1ccc(NS(=O)(=O)c2cccc3nonc23)cc1	0.4	3.4	1.3	9.0	nt	i	1.2	-5.0
CC(C)OP(=O)(c1ccc(N(C)C)cc1)C(O)c1ccc(C(C)C)cc1 (configuration not stated)	2.3	4.1	-3.2	73.9*	12.5	i	-1.9	-15.3
Cc1c(C#N)c2ncnc(N)c2n1-c1ccccc1	-7.1	-1.1	-0.3	nt	-22.2	nt	-4.4	-2.5
O=C(/C=N/O)Nc1cccnc1	7.9	2.2	8.2	-23.2	-15.9	i	2.3	nt
CN(C)c1cccc(NC(=O)C2(C)CC2(Cl)Cl)c1 (configuration not stated)	-2.6	-0.2	6.0	-19.4	-13.7	i	-0.3	-1.3
Clc1c(-c2ccccc2)nnn1-c1ccccc1	2.1	-0.1	2.8	-64.0	-17.5	i	-7.4	-1.1
COC(=O)CSc1nc(C)cc(C)c1C#N	-0.8	-5.0	-4.0	5.0	nt	i	-6.4	14.6
CCN(CC(=O)NC(C)(C)C)C(=O)c1cccc(S(=O)(=O)N2CC3(C)CC2CC(C)(C)C3)c1 (configuration not stated)	nt	-2.1	2.0	2.1	27.1	nt	nt	nt
CC1(C(=O)NC(=S)N(CCC#N)c2ccccc2)CC1(Cl)Cl (configuration not stated)	18.6	1.9	3.3	-123.8	-10.6	i	3.7	-4.2
CN(C)c1ccc(N/C=C/C(=O)c2ccc(F)cc2)cc1	58.3*	-12.7	5.8	nt	-25.4	i	46.6*	46.7	eIF4H FP inh retest=97.5*;PABP FP inh retest=97.8*
Nc1ncnc2c1ncn2[C@@H]1O[C@H](CNC(=O)[C@H]2CCC(=O)N2)[C@@H](O)[C@H]1O	nt	-0.3	0.8	-16.3	-15.3	nt	nt	nt
O=C(COc1ccc(/C=N/NC(=O)c2ccncc2)cc1)Nc1ccc([N+](=O)[O-])cc1	-6.6	3.3	-0.4	-17.1	-7.3	i	2.6	-19.1
COc1ccc(CC2C(=O)OC(C)(C)OC2=O)cc1	26.1	-0.9	3.9	nt	2.0	i	8.8	-9.1
O=C(NN1C(=O)CSC1=S)c1cccnc1	-10.0	nt	nt	-5.4	-6.4	i	-4.7	4.3
O=C(CSc1nc(-c2ccccc2)cc(=O)[nH]1)Nc1ccc(Br)cc1	4.4	0.9	-1.7	14.5	-4.0	i	6.9	2.1
COc1ccccc1N1CCN(CC(=O)Nc2cc(F)ccc2C)CC1	-3.9	-1.3	-0.3	nt	0.9	i	-4.1	-11.6
CC(C)NC(=O)Nc1cccc2c1O[C@H](CN(C)C(=O)Nc1ccccc1)[C@@H](C)CN([C@H](C)CO)C2=O	nt	0.0	2.3	6.1[16.7 µM]	-2.4	nt	nt	4.8
CC1(C)SCC(C(=O)O)NC1=O (configuration not stated)	11.4	3.4	6.6	9.5	nt	i	2.5	-11.3
CC(=O)Nc1ccc(NC(=O)/C=C/c2ccc(Cl)cc2)cc1	-8.7	8.1	4.6	-14.6	nt	i	-4.2	8.3
Cc1ccccc1-n1c(-c2ccc(Br)o2)n[nH]c1=S	nt	0.5	0.3	-4.8	nt	i	nt	-2.3
CCOC(=O)c1c(C)nc2c(c1-c1cc(OC)ccc1OC)C(=O)CC(C)(C)C2	-2.4	-0.9	-0.5	11.0	0.5	i	7.2	-5.2
Cc1ccc(NC(=O)CSCC(=O)Nc2ccccc2N2CCCC2)cc1	nt	-6.4	0.5	10.8	nt	i	nt	-10.7
Cc1ccc(C(=O)NNC(=O)c2cccnc2SCc2cccc([N+](=O)[O-])c2)cc1	17.6	2.0	-8.2	5.5	nt	i	3.0	-8.9
C/C(=N\NC(=O)c1[nH]c2c([N+](=O)[O-])cc(C)cc2c1-c1ccccc1)c1cccnc1	9.7	1.1	-10.7	nt	-6.0	i	-4.7	10.9

Going on with the list:
SMILES	PABP FP inh	MT1-MMP act inh	MT1-MMP act inh RFP	Env fusion inh	Yeast UUG start	Rce1 inh	eIF4H FP inh	CSC inhib	others
CCc1ccc2c(c1)/C(=N/N(C)C(=S)NC)C(=O)N2	-9.8	9.4	-3.3	-126.5	-11.6	i	-9.4	-6.2
Cc1c(C(=O)N2CCN(Cc3ccccc3)CC2)sc2ncnc(N3CCOCC3)c12	27.8	-2.3	-5.7	nt	-5.6	i	-5.9	-13.0
CC(NS(=O)(=O)c1ccc(OCC(=O)NCc2ccncc2)cc1)c1ccccc1 (configuration not stated)	-3.4	5.6	2.2	-1.3	-7.5	i	-1.9	-11.3
O=C(O)/C=C\C(=O)NCc1cccnc1	-1.3	-3.1	2.5	13.7	nt	i	28.5	3.3
Cc1cccc(N=Cc2[nH]c3ccc(Br)c(Cl)c3c2O)c1	-6.0	-16.6	12.5	-8.0	nt	nt	-3.8	20.6
O=C(CN1CCOc2ccccc21)NCc1cccs1	-0.7	1.5	2.5	-7.4	10.0	i	-17.6	-13.1
Cn1c(=O)n(C)c2cc([N+](=O)[O-])c(N3CCN(S(=O)(=O)c4ccccc4)CC3)cc21	3.6	4.8	-12.7	2.0	-9.0	i	4.7	6.3

Source: PubChem
